Vaccinia stage: blocks a specific stage of Vaccinia orthopoxvirus infection, primary screen, cell-based, single point; Vaccinia-infected cells, mCherry/Venus stage reporter fluorescence; stronger effect = lower value; some inactives read as strong as hits; activity change (mCherry), % (concentration not given with the values); 89,000 compounds, 0.01% hits; AID 1053133, 2014;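 active means mCherry past -33% and 40 or more points under the early reporter, replicates agreeing; inconclusive means past -33% without that gap or agreement; tested in A549 cells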;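 further: scaled between vehicle wells and reference inhibitor wells; 23 nL library stock went into each well; one replicate is shown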
Vaccinia stage Venus: recorded beside Vaccinia stage, whose call it bears; activity change (Venus), %; measured here: Venus reporter, other viral stage;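 negative = less Venus signal; first of two replicates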
Active calls of the source: *. Not all compounds are listed; the hit share may differ from the screen's.

How did C[C@H]1CCCCO[C@H](CN(C)CC2CC2)[C@@H](C)CN([C@@H](C)CO)C(=O)c2cc(NC(=O)Nc3ccccc3)ccc2O1 do in these assays?
Vaccinia stage: 3; Vaccinia stage Venus: -6

Results for COc1ccccc1NC(=O)N1C[C@H]2[C@@H](c3ccccc31)[C@H](CO)N2CC1CCOCC1 ?
Vaccinia stage: 8; Vaccinia stage Venus: 11

Results for COc1ccccc1-c1ccc([C@H]2[C@@H](CO)N[C@@H]2CNC(=O)C2CC2)cc1 ?
Vaccinia stage: -5; Vaccinia stage Venus: 0

Results for C[C@@H]1CN([C@@H](C)CO)C(=O)Cc2cc(N(C)C)ccc2O[C@H]1CN(C)S(=O)(=O)c1ccc(F)cc1 ?
Vaccinia stage: 17; Vaccinia stage Venus: 4

How did COCC#Cc1cnc2c(c1)C(=O)N([C@@H](C)CO)C[C@H](C)[C@H](CN(C)C(=O)Cc1ccncc1)O2 do in these assays?
Vaccinia stage: -4; Vaccinia stage Venus: 5

What do the screens show for `Cc1noc(C)c1NC(=O)Nc1ccc2c(c1)CC(=O)N([C@H](C)CO)C[C@H](C)[C@H](CN(C)C(=O)Nc1ccc(F)cc1)O2`?
Vaccinia stage: 13; Vaccinia stage Venus: 11

What do the screens show for `COc1ccc(CNC(=O)C[C@@H]2CC[C@H]3[C@@H](COc4ccc(NC(=O)C5CC5)cc4C(=O)N3C)O2)cc1`?
Vaccinia stage: 6; Vaccinia stage Venus: 9

Results for O=C(O)C[C@H]1CC[C@@H](NC(=O)Nc2cc(F)ccc2F)[C@H](CO)O1 ?
Vaccinia stage: 12; Vaccinia stage Venus: 6

Results for C[C@@H]1CN([C@H](C)CO)C(=O)c2cc(-c3ccncc3)cnc2O[C@H]1CN(C)Cc1cccnc1 ?
Vaccinia stage: 13; Vaccinia stage Venus: 16

How did C[C@@H]1CN([C@@H](C)CO)C(=O)c2cc(NC(=O)Nc3cccc4ccccc34)ccc2O[C@H]1CN(C)CC1CCCCC1 do in these assays?
Vaccinia stage: -33; Vaccinia stage Venus: -20

How did COCC(=O)N1CC(=O)N2[C@H](CO)[C@@H](c3ccc(C#CC(C)C)cc3)[C@H]2C1 do in these assays?
Vaccinia stage: 0; Vaccinia stage Venus: -3

Results for C[C@@H]1CN([C@@H](C)CO)C(=O)c2cc(-c3ccc(C#N)cc3)cnc2O[C@@H]1CN(C)Cc1ccncc1 ?
Vaccinia stage: 21; Vaccinia stage Venus: 13

Results for CC(C)NC(=O)Nc1ccc2c(c1)C(=O)N([C@H](C)CO)C[C@@H](C)[C@H](CN(C)C(=O)c1ccncc1)OCCCC[C@@H](C)O2 ?
Vaccinia stage: 25; Vaccinia stage Venus: 14

Results for Cc1noc(C)c1S(=O)(=O)Nc1cccc2c1O[C@H](CN(C)CC1CC1)[C@H](C)CN([C@H](C)CO)C2=O ?
Vaccinia stage: 16; Vaccinia stage Venus: 16

How did C[C@@H]1CN([C@@H](C)CO)C(=O)c2cc(NS(=O)(=O)c3ccc(F)cc3)ccc2O[C@@H](C)CCCCO[C@H]1CN(C)Cc1ccncc1 do in these assays?
Vaccinia stage: -1; Vaccinia stage Venus: -8

What do the screens show for `COc1ccc(S(=O)(=O)Nc2ccc3c(c2)CC(=O)N([C@@H](C)CO)C[C@H](C)[C@@H](CN(C)CC2CCCCC2)O3)cc1`?
Vaccinia stage: -14; Vaccinia stage Venus: -10

Results for Cc1ccc(-c2ccc([C@H]3[C@@H](CO)N4CCCCN(C)C[C@H]34)cc2)cc1 ?
Vaccinia stage: -10; Vaccinia stage Venus: -21

What do the screens show for `CCN(C[C@H]1[C@H](c2ccccc2)[C@@H](CO)N1C(C)=O)C(=O)c1cccc(F)c1`?
Vaccinia stage: 4; Vaccinia stage Venus: 0

How did COc1ccc2c3c(n(C)c2c1)[C@H](CO)N(C)CC31CCN(C(=O)c2ccccc2F)CC1 do in these assays?
Vaccinia stage: -5; Vaccinia stage Venus: -10

What do the screens show for `C[C@@H]1CN([C@H](C)CO)C(=O)Cc2cc(N(C)C)ccc2O[C@@H]1CN(C)S(=O)(=O)c1ccc(F)cc1`?
Vaccinia stage: 13; Vaccinia stage Venus: 5

Results for C[C@H](CO)N1C[C@H](C)[C@@H](CN(C)C(=O)c2ccccn2)Oc2cc(C#Cc3ccccc3)ccc2S1(=O)=O ?
Vaccinia stage: -30; Vaccinia stage Venus: -17

How did COc1ccc(S(=O)(=O)Nc2ccc3c(c2)C(=O)N([C@H](C)CO)C[C@@H](C)[C@H](CN(C)C(=O)Nc2ccc(C(F)(F)F)cc2)OCCCC[C@H](C)O3)cc1 do in these assays?
Vaccinia stage: inconclusive

How did Cc1noc(C)c1S(=O)(=O)N(C)C[C@H]1Oc2ccc(NC(=O)C3CC3)cc2CC(=O)N([C@@H](C)CO)C[C@H]1C do in these assays?
Vaccinia stage: 18; Vaccinia stage Venus: 12

How did CC(C)C#Cc1ccc2c(c1)O[C@H](CN(C)CC1CCOCC1)[C@H](C)CN([C@@H](C)CO)S2(=O)=O do in these assays?
Vaccinia stage: -24; Vaccinia stage Venus: -18

How did C[C@@H]1CN([C@@H](C)CO)C(=O)c2cc(NS(=O)(=O)c3cccs3)ccc2O[C@@H]1CN(C)C(=O)Nc1cccc2ccccc12 do in these assays?
Vaccinia stage: 11; Vaccinia stage Venus: 9

What do the screens show for `C[C@@H]1CN([C@@H](C)CO)S(=O)(=O)c2ccc(-c3ccc(F)cc3)cc2O[C@H]1CN(C)C`?
Vaccinia stage: -22; Vaccinia stage Venus: -11

Results for C[C@H]1CN([C@@H](C)CO)C(=O)c2c(c3ccccc3n2C)-c2ccccc2CO[C@@H]1CN(C)Cc1cccc(O)c1 ?
Vaccinia stage: inconclusive

How did C[C@@H]1CN([C@H](C)CO)S(=O)(=O)c2ccc(C3=CCCC3)cc2O[C@@H]1CN(C)C(=O)c1ccccn1 do in these assays?
Vaccinia stage: 4; Vaccinia stage Venus: 0

Results for O=C(c1ccccc1)N1CC(=O)N2[C@H](CO)[C@@H](c3ccc(-c4ccccc4)cc3)[C@H]2C1 ?
Vaccinia stage: inconclusive

Results for C[C@H](CO)N1C[C@H](C)[C@H](CN(C)Cc2ccccc2F)Oc2ncc(C3=CCCC3)cc2C1=O ?
Vaccinia stage: 15; Vaccinia stage Venus: 0

The final two compounds of the section before lead into the next:
Results for O=C(c1ccccc1)N1CC(=O)N2[C@H](CO)[C@@H](c3ccc(-c4ccccc4)cc3)[C@H]2C1 ?
Vaccinia stage: inconclusive

Results for C[C@H](CO)N1C[C@H](C)[C@H](CN(C)Cc2ccccc2F)Oc2ncc(C3=CCCC3)cc2C1=O ?
Vaccinia stage: 15; Vaccinia stage Venus: 0

What do the screens show for `COc1cccc(NC(=O)C[C@@H]2CC[C@H]3[C@H](COc4ccc(NC(=O)C5CCCC5)cc4C(=O)N3C)O2)c1`?
Vaccinia stage: -5; Vaccinia stage Venus: 0

Results for CCCC#Cc1ccc2c(c1)O[C@H](CN(C)Cc1ccncc1)[C@@H](C)CN([C@@H](C)CO)S2(=O)=O ?
Vaccinia stage: inconclusive

What do the screens show for `C[C@H](CO)N1C[C@H](C)[C@@H](CN(C)C(=O)Nc2ccc3c(c2)OCO3)Oc2ccc(NS(=O)(=O)c3cccs3)cc2CC1=O`?
Vaccinia stage: -11; Vaccinia stage Venus: 8

What do the screens show for `COc1ccc(CNC(=O)C[C@@H]2CC[C@@H](NC(=O)c3cccc(F)c3)[C@H](CO)O2)cc1`?
Vaccinia stage: 5; Vaccinia stage Venus: 6

How did Cc1ccc(S(=O)(=O)Nc2ccc3c(c2)C(=O)N([C@@H](C)CO)C[C@@H](C)[C@@H](CN(C)S(=O)(=O)c2c(C)noc2C)O3)cc1 do in these assays?
Vaccinia stage: 11; Vaccinia stage Venus: 19

What do the screens show for `O=C1CN(S(=O)(=O)c2cccc(F)c2)C[C@H]2[C@@H](c3ccc(-c4ccccc4)cc3)[C@@H](CO)N12`?
Vaccinia stage: -32; Vaccinia stage Venus: -23

How did O=C(C[C@H]1CC[C@H]2[C@@H](COC[C@@H](O)CN2C(=O)c2ccccc2)O1)NCc1cccc(F)c1 do in these assays?
Vaccinia stage: -1; Vaccinia stage Venus: 2

How did C[C@@H]1CN([C@H](C)CO)C(=O)c2cccc(NC(=O)NC3CCCCC3)c2O[C@@H]1CN(C)Cc1ccncc1 do in these assays?
Vaccinia stage: 11; Vaccinia stage Venus: 11

How did C[C@@H]1CCCCO[C@@H](CN(C)Cc2ccncc2)[C@@H](C)CN([C@H](C)CO)C(=O)c2cc(NC(=O)c3ccccc3)ccc2O1 do in these assays?
Vaccinia stage: 1; Vaccinia stage Venus: -3

What do the screens show for `COCC#Cc1cnc2c(c1)C(=O)N([C@H](C)CO)C[C@@H](C)[C@@H](CN(C)Cc1ccc3c(c1)OCO3)O2`?
Vaccinia stage: 15; Vaccinia stage Venus: 17

Results for C[C@H](CO)N1C[C@H](C)[C@@H](CN(C)Cc2ccccc2)Oc2ccc(NC(=O)NC3CCCCC3)cc2CC1=O ?
Vaccinia stage: inconclusive

How did CC(C)NC(=O)N(C)C[C@H]1Oc2ccc(NC(=O)Cc3cn(C)c4ccccc34)cc2C(=O)N([C@H](C)CO)C[C@H]1C do in these assays?
Vaccinia stage: 8; Vaccinia stage Venus: 7

What do the screens show for `COCC(=O)N1[C@@H](C#N)[C@H](c2ccccc2-c2ccccc2)[C@@H]1CO`?
Vaccinia stage: 13; Vaccinia stage Venus: 17

What do the screens show for `C[C@@H]1CN([C@H](C)CO)C(=O)c2cc(NC(=O)C3CCCCC3)ccc2O[C@H]1CN(C)Cc1ccncc1`?
Vaccinia stage: 25; Vaccinia stage Venus: 22

How did N#C[C@@H]1[C@@H](c2ccccc2C2=CCCCC2)[C@@H](CO)N1C(=O)c1ccccn1 do in these assays?
Vaccinia stage: 15; Vaccinia stage Venus: 14

Among those listed so far, 2 contain a thiophene ring, fused or not:
How did C[C@@H]1CN([C@@H](C)CO)C(=O)c2cc(NS(=O)(=O)c3cccs3)ccc2O[C@@H]1CN(C)C(=O)Nc1cccc2ccccc12 do in these assays?
Vaccinia stage: 11; Vaccinia stage Venus: 9

What do the screens show for `C[C@H](CO)N1C[C@H](C)[C@@H](CN(C)C(=O)Nc2ccc3c(c2)OCO3)Oc2ccc(NS(=O)(=O)c3cccs3)cc2CC1=O`?
Vaccinia stage: -11; Vaccinia stage Venus: 8

Quoted at random: three compounds from above
Results for COc1ccccc1-c1ccc([C@H]2[C@@H](CO)N[C@@H]2CNC(=O)C2CC2)cc1 ?
Vaccinia stage: -5; Vaccinia stage Venus: 0

Results for O=C(c1ccccc1)N1CC(=O)N2[C@H](CO)[C@@H](c3ccc(-c4ccccc4)cc3)[C@H]2C1 ?
Vaccinia stage: inconclusive

How did COc1ccc(S(=O)(=O)Nc2ccc3c(c2)C(=O)N([C@H](C)CO)C[C@@H](C)[C@H](CN(C)C(=O)Nc2ccc(C(F)(F)F)cc2)OCCCC[C@H](C)O3)cc1 do in these assays?
Vaccinia stage: inconclusive

Going on with the list:
How did N#C[C@H]1[C@@H](c2ccccc2C2=CCCC2)[C@@H](CO)N1C(=O)NC1CCCCC1 do in these assays?
Vaccinia stage: -23; Vaccinia stage Venus: -8

Results for CN1C(=O)c2cc(NC(=O)C3CC3)ccc2OC[C@H]2O[C@@H](CC(=O)Nc3cc(F)ccc3F)CC[C@@H]21 ?
Vaccinia stage: 19; Vaccinia stage Venus: 9

What do the screens show for `C=CCOC(=O)C(=O)/C=C/c1ccc2c(c1)Cc1ccccc1-2`?
Vaccinia stage: 10; Vaccinia stage Venus: 6

Results for CO[C@@H](CN(C)C(=O)c1cnccn1)[C@@H](C)CN([C@H](C)CO)S(=O)(=O)c1ccc(F)cc1 ?
Vaccinia stage: 17; Vaccinia stage Venus: 17

What do the screens show for `N#Cc1ccc(-c2ccc3c(c2)[C@H]2[C@H](CCN2C(=O)C2CCCC2)[C@@H](CO)N3)cc1`?
Vaccinia stage: inconclusive

Results for C[C@@H]1CN([C@@H](C)CO)C(=O)c2cccc(NS(=O)(=O)c3ccccc3)c2O[C@@H]1CN(C)C(=O)NC1CCCCC1 ?
Vaccinia stage: -1; Vaccinia stage Venus: 1

How did CC(C)NC(=O)Nc1ccc2c(c1)CC(=O)N([C@@H](C)CO)C[C@@H](C)[C@H](CN(C)C(=O)Nc1cccc3ccccc13)O2 do in these assays?
Vaccinia stage: inconclusive

Results for CC(C)CC#Cc1ccc2c(c1)O[C@@H](CN(C)C(=O)Cc1ccncc1)[C@H](C)CN([C@@H](C)CO)S2(=O)=O ?
Vaccinia stage: inconclusive

How did Cc1ccc(S(=O)(=O)N2CC[C@@H]3[C@H](CO)N(C)c4ccc(-c5ccc(C#N)cc5)cc4[C@@H]32)cc1 do in these assays?
Vaccinia stage: inconclusive

What do the screens show for `O=C(C[C@@H]1CC[C@@H]2[C@H](COC[C@@H](O)CN2C(=O)Nc2cccc(Cl)c2)O1)NCCCN1CCOCC1`?
Vaccinia stage: 8; Vaccinia stage Venus: 14

How did COC(=O)C[C@@H]1CC[C@H]2[C@@H](COC[C@@H](O)CN2S(=O)(=O)c2ccc(F)cc2)O1 do in these assays?
Vaccinia stage: 10; Vaccinia stage Venus: 8

What do the screens show for `C[C@@H]1CCCCO[C@H](CN(C)C(=O)CCC(F)(F)F)[C@@H](C)CN([C@@H](C)CO)C(=O)c2cc(NC(=O)Nc3ccccc3)ccc2O1`?
Vaccinia stage: -3; Vaccinia stage Venus: 0

How did COc1ccc2c3c([nH]c2c1)[C@H](CO)NCC31CCN(C(=O)C2CCCC2)CC1 do in these assays?
Vaccinia stage: -17; Vaccinia stage Venus: -6

3 structures from above, sorted by number of heavy atoms, falling:
What do the screens show for `C[C@@H]1CN([C@H](C)CO)C(=O)c2cc(NC(=O)C3CCCCC3)ccc2O[C@H]1CN(C)Cc1ccncc1`?
Vaccinia stage: 25; Vaccinia stage Venus: 22

What do the screens show for `C[C@@H]1CN([C@@H](C)CO)S(=O)(=O)c2ccc(-c3ccc(F)cc3)cc2O[C@H]1CN(C)C`?
Vaccinia stage: -22; Vaccinia stage Venus: -11

How did COC(=O)C[C@@H]1CC[C@H]2[C@@H](COC[C@@H](O)CN2S(=O)(=O)c2ccc(F)cc2)O1 do in these assays?
Vaccinia stage: 10; Vaccinia stage Venus: 8
